TAR Tat displ: TAR RNA-Tat peptide displacers, HIV-1, primary screen, biochemical, FRET, FAM/TAMRA-labeled Tat. HIV-1 TAR RNA, Tat peptide displacement FRET; stronger effect = higher value. z-score (concentration not given with the values). 100,000 tested, 0.6% active. AID 1259389, 2018;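 note: score is relative to mean and SD of negative controls; some compounds called inactive have numbers as strong as hits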
CDC25B-CDK2 inh: primary biochemical HTRF screen for blockers of M-phase inducer phosphatase 2 binding to CDK2/cyclin A; P30305+P24941; HTRF CDC25B-CDK2/CyclinA binding, anti-His/anti-Flag; stronger effect = higher value; z-score (test concentration not listed); 94,000 tested, 0.72% active; AID 1259370, 2018;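 note: score is relative to mean and SD of negative controls; strong numbers were not always called active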
* = called active by the depositor; . = no result given.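 Rule for the calls: active = z-score from 3 up in half or more of its runs; inactive = the rest.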

| Molecule | CDC25B-CDK2 inh | TAR Tat displ |
| --- | --- | --- |
| CSc1cccc(NC(=O)CN2N=NC3C(=O)N(c4ccc(F)c(Cl)c4)C(=O)C32)c1 (centres undefined) | . | -0.35 |
| Cc1ccc(-c2noc(C(C)NS(C)(=O)=O)n2)cc1 (centres undefined) | -1.4 | 2.2 |
| Cc1cc(=O)oc2cc(NC(=O)C(C)N)ccc12 (centres undefined) | 1 | . |
| COc1ccc(Nc2nc3ccccc3nc2-c2ccccc2)cc1 | -1.7 | . |
| Cc1[nH]nc(-c2ccc(S(=O)(=O)NCCCN3CCCC3=O)s2)c1C | . | -0.42 |
| Cc1nn(C(C)C(=O)NC(C)CCc2ccccc2)c(=O)c2cc3sccc3n12 (centres undefined) | -0.86 | -0.24 |
| CCC1c2ccc(C)n2CCN1C(=O)Nc1ccccc1Cl (centres undefined) | 0.88 | -12 |
| CN1C2=NCCCN2c2ccccc21 | -1.7 | . |
| CC1CC(C)CN(S(=O)(=O)N2CCCC(C(=O)NCCN3CCOCC3)C2)C1 (centres undefined) | . | 1 |
| O=C(Nc1cccc(-c2cn3ccsc3n2)c1)c1ccc(Br)cc1 | -1.9 | . |
| c1ccc(CCc2nnc3c4c5c(sc4ncn23)CCCC5)cc1 | -0.69 | -0.74 |
| c1ccc2c(c1)nc1n2CN(CCN2CCOCC2)CN1 | -2 | 0.09 |
| CCN(CC)C(=O)Cn1cnc2sc(C(=O)N3CC(C)CC(C)C3)c(C)c2c1=O (centres undefined) | -1.6 | 2.1 |
| Cn1cc(C(=O)N2CCN(C(=O)c3ccco3)CC2)c2c3ccccc3n(C)c2c1=O | 0.2 | . |
| COc1ccc(NC(=O)NCCCN2CCCC2=O)cc1 | -1.2 | 1.1 |
| Cc1ccc(S(=O)(=O)NCCc2cn3cccc(C)c3n2)cc1 | -0.5 | . |
| Cc1ccc(Nc2c(-c3ccc4c(c3)OCC(=O)N4)c(=O)c2=O)cc1F | . | 0.51 |
| COc1ccc(C2OCC(C)(C)n3c(-c4ccccc4)c4c(=O)n(C)c(=O)n(C)c4c32)cc1OC (centres undefined) | -1.7 | 0.65 |
| OC(CNCCNc1nccc(C(F)(F)F)n1)CSc1ccc(F)cc1 (centres undefined) | -1.1 | . |
| CC1C(c2ccccc2)OC(c2ccccc2O)N1C (centres undefined) | -2.4 | 1.7 |
| CCOc1ccccc1C1Nc2ccc(C)cc2-c2cc(C)nn21 (centres undefined) | -0.93 | 1.6 |
| Cc1ccc(Cn2c(-c3nonc3N)nc3ccccc32)cc1 | 0.7 | 0.93 |
| CCn1c(C(=O)N2CCCC(C(=O)NCCCOC)C2)cc2sccc21 (centres undefined) | -0.4 | . |
| c1coc(CNc2nn3nnnc3c3ccccc23)c1 | . | 1.3 |
| COC(=O)C1=C(C)NC(=O)NC1c1ccc(F)c(Br)c1 (centres undefined) | -1.3 | . |
| c1ccc(OCCSc2n[nH]c3nc4ccccc4n23)cc1 | -0.52 | 0.98 |
| Cc1ccc(-n2ccc(=O)c(C(=O)Nc3sc4c(c3C(=O)NCC3CCCO3)CCC4)n2)cc1 (centres undefined) | 0.77 | 0.79 |
| CCOC(=O)c1sc(C)nc1C | -0.79 | -0.14 |
| CCc1ccc(N2C(=O)C3ON(c4ccccc4)C(c4ccncc4)C3C2=O)cc1 (centres undefined) | -2.2 | 2.1 |
| COC(=O)CSC(=O)NC(=O)c1ccccc1Oc1ccc(Cl)cc1Cl | -0.24 | . |
| C/C(=N\O)c1ccn(S(=O)(=O)c2ccc(Cl)cc2)c1 | -0.81 | . |
| CCOC(=O)c1c(C)sc2c1N(C(=O)CN1CCOCC1)c1cc(Cl)ccc1S2 | -1.2 | . |
| Cc1ccc(-c2cn3c(n2)sc2cc(C(=O)NC4CCCC4)ccc23)cc1 | . | 1.9 |
| Cc1ncc(CO)c2c1Oc1[nH]c(-c3ccccc3Cl)nc(=S)c1C2 | -2.9 | 3.9 |
| CC1CCN(S(=O)(=O)c2ccc3nc(NCc4ccc(F)cc4)ccc3c2)CC1 | . | 1.4 |
| CCOc1cc(C2CC(=O)NC3=C2C(=O)CC(C)(C)C3)ccc1OC(C)C (centres undefined) | 0.79 | 1.1 |
| CCc1ccc(C(=O)CC2(O)C(=O)N(Cc3ccccc3C)c3ccccc32)cc1 (centres undefined) | -2.2 | . |
| COc1cccc(-c2c(OC)cccc2C2CCCCN(C)C2=O)c1 (centres undefined) | -0.98 | . |
| O=C(O)CCCCCNc1ncnc2ccccc12 | -1.2 | 2 |
| CCOC(=O)c1nc(NCCCN2CCOCC2)c2ccccc2n1 | . | 0.5 |
| COc1ccc(N2C(=O)CSC23C(=O)Nc2ccc(Br)cc23)cc1 (centres undefined) | -1.3 | . |
| CCc1ccc(S(=O)(=O)c2c[nH]c3cc(F)c(F)cc3c2=O)cc1 | 0.28 | 0.55 |
| CC(=O)Nc1c2n(c3ccc(F)cc13)CC(C)(C(=O)NC1CCCC1)N(C1CCCC1)C2=O (centres undefined) | . | -0.57 |
| Cn1c(-c2nonc2NC(=O)c2cccs2)nc2ccccc21 | -0.78 | 0.67 |
| Clc1ccc(COc2ccccc2CNCc2cccnc2)cc1 | 0.23 | -1.1 |
| C=C(C)n1c(=O)n(Cc2ccc(C)cc2)c2ccccc21 | -0.41 | 0.19 |
| CC1=CC(C)C(COC(=O)Nc2ccccc2)C(C)C1 (centres undefined) | -0.74 | -1.6 |
| O=C(NCCN=C1NS(=O)(=O)c2ccccc21)c1cccc(Br)c1 | -0.77 | . |
| CCOc1ccc(-n2c(C)c(C)c3c2ncn2nc(Cc4ccc(OC)cc4)nc32)cc1 | -1.4 | 0.61 |
| CCn1nc(C)c(CNC(=O)Nc2cc(F)ccc2F)c1C | . | -1.7 |

(further entries)
| Molecule | CDC25B-CDK2 inh | TAR Tat displ |
| --- | --- | --- |
| C=CCN1C(=S)NC2c3cc(Cl)ccc3OC1(C)C2C (centres undefined) | -0.12 | . |
| CCCN1C(=O)C2(/C(=C(/O)c3ccccc3)C(=O)C(=O)N2CCN2CCOCC2)c2ccccc21 (centres undefined) | 0.16 | 1.9 |
| O=C(CCC(=O)N1CC2CCCN2c2ccccc21)NC1CC1 (centres undefined) | . | -1.8 |
| O=C(Nc1ccc(OC(F)(F)F)cc1)c1cnn2c(C(F)(F)F)cc(-c3ccco3)nc12 | -2.3 | . |
| CC12CN3CC(C)(CN(C1)C3c1ccc(F)cc1)C2O (centres undefined) | -0.9 | . |
| CCN(Cc1ccccc1)C(=O)Cn1nc(C)n2c(cc3occc32)c1=O | 0 | 0.04 |
| O=c1c(S(=O)(=O)c2cc(F)cc(F)c2)c[nH]c2c(F)c(Cl)ccc12 | -1.7 | 1.2 |
| COc1ccc(NC(=O)c2nc(S(C)(=O)=O)ncc2Cl)cc1Cl | 1.1 | 3.7 |
| N/C(=N\O)c1ccc(N2CCN(c3ncccc3C(F)(F)F)CC2)nc1 | 1.3 | . |
| CC1CC(=O)Nc2cc(S(=O)(=O)NCc3cccs3)ccc2S1 (centres undefined) | . | 0.35 |
| Clc1ccc(-c2nc3cnccn3c2NC2CCCC2)cc1 | -0.72 | . |
| Cc1ccc(C)c(NC(=O)c2cc3c(=O)n4ccccc4nc3n2C)c1 | . | 1.2 |
| O=C(c1csc2c1CCCC2)N1CCc2ccccc2C1 | -1.7 | . |
| CCc1ccc2c(c1)Cc1ccccc1-2 | -0.77 | . |
| COc1cc(NS(=O)(=O)c2ccc3oc(=O)c4ncn(C)c4c3c2)cc(OC)c1 | . | -0.34 |
| COc1ccc(S(=O)(=O)Nc2ccc3c(c2)n(C)c(=O)n3C)cc1 | -1.6 | 1.6 |
| c1sc2c(c1CN1CCOCC1)CCCC2 | . | -1.6 |
| Cc1ccc(C)c(NS(=O)(=O)c2ccc3c(c2)N(C)CCO3)c1 | . | -0.15 |
| COc1ccc(CC(N)=S)cc1 | 0.02 | . |
| C=CCN1C(=O)C2(/C(=C(/O)c3ccc(C)cc3)C(=O)C(=O)N2CC2CCCO2)c2ccccc21 (centres undefined) | -0.07 | -1 |
| Cn1cc(-c2cc3n(n2)CCC(=O)N3CCCC(=O)NCCc2cnc[nH]2)c2ccccc21 | . | 0.53 |
| Cn1c(-c2ccc(Cl)cc2)cnc1NCc1ccccc1F | 1.2 | -0.81 |
| O=C(COc1ccc(C2SCCS2)cc1)Nc1cc(Cl)cc(Cl)c1 | -0.42 | . |
| O=C1Nc2ccccc2S/C1=C/c1ccccc1 | -1.3 | . |
| O=C(CCS(=O)(=O)c1ccc2c(c1)NC(=O)CO2)NCc1cccs1 | . | 0.21 |
| c1ccc(N2CCN(Cc3nnc(-c4ccc5c(c4)OCO5)o3)CC2)nc1 | -1.6 | 1.1 |
| Cc1ccc(C(=O)CN2/C(=C(/O)c3ccccc3)C(=O)c3ccccc3S2(=O)=O)c(C)c1 | -1.2 | -0.28 |
| COCCCNC(=O)CCS(=O)(=O)c1cc(Br)cc2c1N(C(C)=O)CC2 | 0.45 | . |
| Cc1ccc(-c2c(N3CCN(c4cc(Cl)ccc4C)CC3)c(=O)c2=O)cc1 | . | 0.37 |
| CCOC(=O)CC1=C(C(=O)OCC)C(c2cccnc2)C(C#N)=C(N)O1 (centres undefined) | -1.1 | . |
| CCOC(=O)c1ccc(Oc2ccc(Cl)cc2Cl)c([N+](=O)[O-])c1 | -1 | . |
| O=C(Cn1c(=O)c2cccn2c2ccccc21)Nc1ccccc1Br | -0.25 | 1.3 |
| CCN1CCCC1CNC(=O)C1c2ccccc2C(=O)N(C2CCCC2)C1c1cccs1 (centres undefined) | . | 1.4 |
| Cc1cc2c(cc1C)N=C(C(F)(F)F)CC(c1cccs1)=N2 | -0.71 | 0.44 |
| Cc1onc(-c2ccccc2Cl)c1C(=O)O/N=C(\N)c1ccc2c(c1)OCO2 | -1.1 | . |
| CC(=O)Oc1ccc(Cl)cc1C1=NN(C(C)=O)C(c2cccs2)O1 (centres undefined) | . | 1.1 |
| O=C(CSc1n[nH]c(=O)n1C1CC1)Nc1ccccc1 | -2.1 | . |
| CSc1ccc(C2CC(=O)Nc3c2c(=O)n(C)c(=O)n3C)cc1 (centres undefined) | -2.1 | . |
| CC(C)OCCCNC(=O)C1CCN(c2nnc(-n3cccc3)s2)CC1 | -1.3 | -0.36 |
| O=C(NC(=O)c1ccccc1O)c1ccoc1 | -2.1 | . |
| COc1ccc(NC(=O)c2cccnc2SC)cn1 | . | 1.2 |
| CCOC(=O)C1=C(C)Nc2nnnn2C1c1ccccc1OCC (centres undefined) | . | 0.71 |
| O=C1CCCN1CCCNc1ncnc2c1cnn2-c1ccccc1 | . | 2.8 |
| O=C(COC(=O)c1ccc2nc3c4ccccc4c4ccccc4c3nc2c1)c1ccccc1 | -2 | . |
| Nc1nc(N)c2nc(CO)cnc2n1 | -1.3 | . |
| N#Cc1ccc(-c2csc(-c3ccc(-c4csnn4)cc3)n2)cc1 | -0.96 | . |
| O=S1(=O)C[C@H](N2CCCCC2)[C@@H](S(=O)(=O)c2ccc(Cl)cc2)C1 | -2.3 | 2 |
| CCOc1ccc(CN2C(=O)C(=O)c3cc(Br)cc(C)c32)cc1OC | -0.52 | 1.4 |
| Cn1c(=O)oc2cc(S(=O)(=O)NC3CCCC3)ccc21 | -1 | . |
| Cc1c(NS(=O)(=O)c2ccc3c(c2)n(C)c(=O)c(=O)n3C)c(=O)n(-c2ccccc2)n1C | -0.52 | 0.07 |

Compounds listed so far containing a cyano group, in the order listed:
| Molecule | CDC25B-CDK2 inh | TAR Tat displ |
| --- | --- | --- |
| CCOC(=O)CC1=C(C(=O)OCC)C(c2cccnc2)C(C#N)=C(N)O1 (centres undefined) | -1.1 | . |
| N#Cc1ccc(-c2csc(-c3ccc(-c4csnn4)cc3)n2)cc1 | -0.96 | . |

Single records, from the list above.
Results for `Cc1cc2c(cc1C)N=C(C(F)(F)F)CC(c1cccs1)=N2` = CDC25B-CDK2 inh = -0.71; TAR Tat displ = 0.44
Results for `O=C(NC(=O)c1ccccc1O)c1ccoc1` = CDC25B-CDK2 inh = -2.1; TAR Tat displ = .
Results for `Cc1ccc(C(=O)CN2/C(=C(/O)c3ccccc3)C(=O)c3ccccc3S2(=O)=O)c(C)c1` = CDC25B-CDK2 inh = -1.2; TAR Tat displ = -0.28

(listing goes on)
| Molecule | CDC25B-CDK2 inh | TAR Tat displ |
| --- | --- | --- |
| CCCCCCNc1cc(C)nc2c(-c3ccc(F)cc3)cnn12 | -2.7 | 0.92 |
| COCCNC(=O)CSc1cn(CC(=O)N2CCOCC2)c2ccccc12 | . | -0.46 |
| O=c1c(-c2ccc3c(c2)CCCC3)c(N2CCc3ccccc3C2)c1=O | . | 3.1 |
| CCCCCCN1N=C(C)C(C(=O)c2ccc(Br)cc2)C1=O (centres undefined) | -0.06 | -2 |
| CC(=O)N1CCSc2ccc(S(=O)(=O)Nc3ccc(Cl)cc3F)cc21 | . | 3.4 |
| Cc1ccc(-c2onc(C)c2C)cc1S(=O)(=O)N(C)Cc1ccccc1 | . | 0.35 |
| Oc1c(Cl)cc(Cl)cc1C=Nc1ccccc1N1CCCCCC1 | -2.9 | . |
| CCCN1C(=O)c2cc(C(=O)NC3CC3)nn2CC1(C)C(=O)NC1CCCC1 (centres undefined) | . | -1.2 |
| N#Cc1cnn(-c2cccc(Cl)c2)c1-n1cccc1 | -0.29 | . |
| Cc1cc(=O)[nH]c(SCC(=O)Nc2nc3c(s2)CCCC3)n1 | -1.4 | . |
| CN(C)CCCOC(=O)N1c2ccccc2C=Cc2ccccc21 | -0.63 | 1.8 |
| CC(C(=O)N1CCN(C)CC1)n1sc2ccccc2c1=O (centres undefined) | -2.7 | 3.1 |
| COc1cc(Nc2c3c(nc4ccccc24)CCC3)cc(OC)c1 | -1.2 | 1.3 |
| O=c1c(NCc2cccs2)nccn1Cc1ccc(Cl)cc1 | . | -1.3 |
| CCOC(=O)c1sc2ccccc2c1S(=O)(=O)NCc1ccccn1 | . | 0.46 |
| CC(=O)c1c(C)[nH]c(C(=O)N2CC(C)CC(C)C2)c1C (centres undefined) | -1.3 | . |
| Cc1c(C(=O)N2CCCC2)sc2ncnc(N3CCCCC3C)c12 (centres undefined) | -1.3 | . |

Compound activity deposited in PubChem by Center for Chemical Genomics, University of Michigan.
